Source: PubChem
MT1-MMP act inh: inhibitors of human MT1-MMP activation; P50281; HT1080 RFP-PRO-GFP cells, GFP/RFP ratio fluorescence, overnight; percent of plate control window, DMSO zero; GFP/RFP ratio change, % at 20 µM; 0.061% of 360,000 active;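 active = GFP/RFP ratio change of at least 30% with cell ATP level not reduced by more than half and red fluorescence within 50% of control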; note: strong numbers were not always called active
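Material: RFP-PRO-GFP reporter HT1080 cells. Dosing: single-point 20 µM compound, 1% DMSO. Controls: DMSO and RFP-L50D-GFP cell wells. Timing: cells overnight before dosing, compound overnight, 37 °C, 5% CO2. Measure: GFP/RFP fluorescence ratio.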
Env fusion inh: blocks HIV Env-driven cell-cell fusion; AID 651610; HeLa-JRFL Env/CEM21 cell fusion, luciferase; 1.1% of 360,000 active; inhibition, % at 12.3 µM;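 active = mean replicate inhibition score of at least 50 and every replicate individually at or above 50; inconclusive = only one of the two criteria met; inactive = mean below 50 and not all replicates reaching 50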;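 note: 0% = plate neutral controls and 100% = maraviroc near 300 nM; one replicate is shown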
CSC inhib: cancer stem cell inhibition | cancer stem cell-like cells viability, luminescence | inhibition, % at 7.5 µM | 1.1% of 300,000 active | AID 2717;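 active = mean at 75% or more and at least half the replicates too; inconclusive = mean and replicates disagree; tested in HMLE shEcad cells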;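 note: 0% = median of negative and 100% = median of positive control wells; the first replicate is given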
PABP FP inh: blocks human PABP binding to poly(A) RNA; fluorescence polarization; P11940; 1% of 290,000 active; AID 2014; inhibition, % at 35 µM;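 active = 50% or more with normal probe brightness, or confirmed in later tests; inconclusive = above 50% with abnormal brightness, or retests that disagree; inactive = below 50% or failed in later tests; about a fifth of its hits are not listed in these tables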;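 note: calls also rest on retests at 20 µM and on dose response follow-up; controls were probe without protein and protein plus probe with vehicle; some compounds called inactive have numbers as strong as hits; many hits fall short of the cut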
UUG fidelity: modulators of start codon recognition fidelity in yeast | S. cerevisiae UUG-firefly luciferase reporter, luminescence/redox ratio | activity score, % at 18.7 µM | 0.13% of 350,000 active | AID 602363;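 active = replicate mean at a twofold rise or more, about +100% in these data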;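 note: firefly luciferase made from a UUG start codon reports start codon fidelity; reporter light over untreated wells divided by growth signal over untreated wells; some hits fall short of that in this replicate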
Rce1 inh: blocks yeast Ras-converting enzyme. Q03530. yeast membranes, quenched prenylated peptide cleavage fluorescence. AID 2563. 0.27% of 290,000 active. calls only;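 active = fall in fluorescence gain of 50% or more versus controls, with final raw signal at or below 3038400; inconclusive = same 50% fall but final raw signal above 3038400; inactive = fall in fluorescence gain under 50%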;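 note: plate controls were neutral control wells for no effect and wells lacking membranes for full effect; tested at 10 µM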
Target sequence (Q03530 whole entry, looked up): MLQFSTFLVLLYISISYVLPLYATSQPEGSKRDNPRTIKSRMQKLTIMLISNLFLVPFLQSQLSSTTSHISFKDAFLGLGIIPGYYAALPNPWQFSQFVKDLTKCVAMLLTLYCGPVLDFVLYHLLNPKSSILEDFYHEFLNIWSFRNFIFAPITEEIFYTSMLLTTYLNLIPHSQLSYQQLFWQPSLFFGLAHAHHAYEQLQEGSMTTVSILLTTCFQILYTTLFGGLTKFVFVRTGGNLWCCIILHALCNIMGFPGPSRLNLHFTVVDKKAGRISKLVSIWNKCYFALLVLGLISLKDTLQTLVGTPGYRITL
eIF4H inh: inhibitors of RNA binding by human eIF4H; Q15056; eIF4H fluorescence polarization binding assay; inhibition, % at 35 µM; 0.94% of 290,000 active; AID 2012;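 active = 50% or more with normal probe brightness, or confirmed in later tests; inconclusive = above 50% with abnormal brightness, or retests that disagree; inactive = below 50% or failed in later tests; about a fifth of its hits are not listed in these tables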;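 note: calls also rest on retests at 20 µM and on dose response follow-up; 0% = protein and probe with vehicle and 100% = probe without protein; strong numbers were not always called active; many hits fall short of the cut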
MT1-MMP act inh RFP: also measured in MT1-MMP act inh; calls as there; RFP signal change, %; measured here: RFP expression control read;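 0 = vehicle wells; hits needed this value within 50% of zero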
* hit, by the source's call; i = inactive; ? = inconclusive; · = no result given. An excerpt. The share of hits here may be higher or lower than overall.

SMILES	MT1-MMP act inh	MT1-MMP act inh RFP	Env fusion inh	CSC inhib	PABP FP inh	UUG fidelity	Rce1 inh	eIF4H inh
O=C(Nc1cccc(N2C(=O)C3C4C=CC(C4)C3C2=O)c1)c1cccs1 (centres undefined)	5.6	-4.7	13.0	4.3	-6.7	·	i	-12.4
CC1CCCN(S(=O)(=O)CCNC(=O)c2ccc3c(c2)OCO3)C1 (centres undefined)	2.5	4.7	6.8	-13.8	·	-17.2	i	·
Cc1csc(SCC(=O)c2c(N)n(C)c(=O)n(C)c2=O)n1	2.0	-1.2	·	-1.2	-8.0	-13.7	i	8.4
Cc1cc(C(=O)CSc2ccc(F)cc2)cc(C)c1O	-1.0	-0.8	-26.7	11.6	17.7	-15.7	i	-3.3
COc1ccccc1Cc1nnnn1CC(=O)O	-0.6	1.2	-24.1	·	-0.9	-13.9	i	1.5
O=C(NCC(=O)N(CCc1ccccc1)C(C(=O)NC1CCCC1)c1cccnc1)c1ccco1 (centres undefined)	-2.9	-1.7	·	·	9.7	-11.4	·	-2.2
O=C(O)C1CC1C(=O)N1CCN(c2ccc(Cl)c(Cl)c2)CC1 (centres undefined)	1.9	7.7	-103.5	6.5	3.8	-17.0	·	-6.5
CC1=CC2=NC(=O)/C(=C/c3cccn3Cc3ccccc3)C(=N)N2O1	-1.4	-9.0	19.4	12.1	-7.9	-9.6	i	-4.2
Cc1ccc(-n2ncc3c2CC(C)(C)CC3NC(=O)CCN2CCCCC2=O)cc1 (centres undefined)	-0.5	1.6	-13.0	-3.7	1.5	-12.3	i	-4.6
CCN(CC)CCN(C(=O)CN1C(=O)c2ccccc2C1=O)c1nc2cc3c(cc2s1)OCO3	4.2	3.3	-14.3	3.7	-0.3	0.0	i	-10.1
C#CCOCCOCCOCCNc1nc(N2CCN(C(=O)[C@H]([C@@H](C)CC)n3cc([C@@H](N)CO)nn3)CC2)nc(N2CCN(C(=O)[C@H](CCCCN)n3cc([C@@H](N)C(C)CC)nn3)CC2)n1 (some centres undefined)	0.5	-1.3	-12.5	-6.3	38.9	32.1	i	27.6
O=C1CC(c2ccc(Cl)cc2)c2c(O)cc(O)cc2O1 (centres undefined)	0.5	5.9	-0.8	-7.1	11.9	-4.9	i	1.9
Cc1ccc(S(=O)(=O)Nc2cc3c(C(=O)Nc4ccccc4)c(C)oc3c3ccccc23)cc1	-10.8	-0.5	-49.8	0.7	13.0	10.0	i	26.1
COc1ccc(C)cc1NC(=O)N1CCC(CO)(CC2CCCCO2)CC1 (centres undefined)	0.2	-0.1	8.7	-7.8	0.8	·	i	-6.3
CCOC(=O)c1cc(CC)sc1NC(=O)Cc1ccccc1	-7.3	-7.5	32.7	-5.9	-4.3	10.3	i	-4.3
CCOc1ccc(CCNC(=O)COC(=O)c2cc([N+](=O)[O-])ccc2N2CCOCC2)cc1OCC	-4.2	-0.9	-4.3	-10.3	15.3	20.6	i	-2.5
CCCCN(C)C(=O)Cn1cnc2sc(C)cc2c1=O	1.5	2.8	·	-11.7	8.5	-8.2	i	2.8
Cc1nc(Nc2ccc(F)cc2)nc(Nc2ccc(F)cc2)c1[N+](=O)[O-]	-5.4	-12.9	7.3	2.6	2.7	·	i	-7.4
O=[N+]([O-])c1cc(S(=O)(=O)Nc2ccccc2)ccc1Nc1ccccc1	1.3	-22.1	14.3	·	·	-9.9	·	·
COc1ccc(Cc2nnc(Nc3ccccc3)s2)cc1Br	3.3	2.3	5.2	2.2	22.6	-15.5	i	36.7
COc1ccc(OCC(=O)Nc2ccc3c(c2)nc(CCN2CCCC2)n3C)cc1	-1.3	0.3	3.1	-12.1	-5.4	-15.3	i	-10.8
CC(=O)Nc1cc(NC(C)=O)cc(C(=O)N2CCCC3CCCCC32)c1 (centres undefined)	-3.2	-1.4	0.3	-3.7	52.8*	-6.6	i	78.9*
Cc1ccc(-c2nc(C#N)c(N3CCCCC3)o2)cc1	-4.1	-4.1	0.6	-9.8	0.2	-8.4	i	-9.1
COc1cc(C(C(=O)NC2CCCCC2)N(Cc2ccco2)C(=O)c2cnccn2)cc(OC)c1OC (centres undefined)	3.2	10.4	14.5	-3.3	-0.1	·	i	-3.9
Cc1cccc(NS(=O)(=O)c2ccc(C)c(C(=O)NCCCN3CCOCC3)c2)c1	1.8	-0.2	7.4	·	·	-8.7	·	·
Going on with the list.
SMILES	MT1-MMP act inh	MT1-MMP act inh RFP	Env fusion inh	CSC inhib	PABP FP inh	UUG fidelity	Rce1 inh	eIF4H inh
Cc1cc(NC(=O)CN2C(=O)/C(=C/c3ccc(C(C)C)cc3)SC2=S)no1	4.8	3.9	-6.5	·	·	-8.2	·	·
COc1cc2c(cc1NC(=O)CSc1ccccc1)oc1ccccc12	-0.6	1.6	1.5	17.3	-1.4	·	i	-3.0
COc1ccc(NC(=S)Nc2cccc(Cl)c2)cc1OC	-0.6	-0.8	-8.2	1.8	18.2	-30.7	i	4.5
Cc1cccnc1C(NC(=O)C1CCN(CCCc2ccccc2)CC1)c1ccc(Cl)cc1 (centres undefined)	3.5	3.8	18.6	·	·	-6.2	·	·
Cc1nn(CC(=O)N2CCC(C)CC2)c(=O)c2nn(-c3ccccc3)c(C)c12	2.7	0.2	-2.2	-4.0	-10.0	4.8	i	-6.5
COC(=O)[C@H]1C[C@H](OC(=O)Nc2cccs2)[C@@]2(O)CN(S(=O)(=O)c3ccc(C)cc3)CC2[C@H]1C(=O)OC (some centres undefined)	-0.6	3.9	-12.7	·	·	-20.9	·	·
CC(C)CNS(=O)(=O)c1ccc(CCC(=O)N2CCN(Cc3ccc4c(c3)OCO4)CC2)cc1	-1.3	-20.1	78.7*	·	-0.7	-14.1	i	9.1
COc1ccc(C(=O)NCCN2CCOCC2)cc1OC	3.3	2.7	·	8.4	?	-14.2	i	4.9
CCSc1cc(N2CCCC2)nc(-c2ccccc2Cl)n1	-3.0	2.9	27.5	5.9	-9.0	·	i	-9.3
Cn1c(=O)c2c(=O)cc(N)[nH]c2n(C)c1=O	-1.9	1.1	-11.5	-26.3	39.1	·	i	44.4
CCOC(=O)C(=CNc1ccc(C(F)(F)F)cc1Cl)C(=O)OCC	-0.6	-2.5	1.2	0.7	-8.4	·	i	-17.2
CCN(c1ccccc1)S(=O)(=O)c1cccc(C(=O)NCc2ccccc2CN2CCOCC2)c1	5.0	-4.8	·	-15.2	·	-14.0	·	·
CC(C)CC(=O)c1c[nH]c(C(=O)O)c1	-1.0	2.0	-8.3	0.5	-10.9	·	i	-9.9
COc1ccc(CN2CCC(=O)N([C@H](CO)Cc3ccccc3)CC2)cc1	-0.5	0.5	15.3	2.0	-8.7	-7.1	i	-1.3
CCCCOc1ccc(C(=O)OCC(=O)Nc2cc(C)on2)cc1	-1.9	-2.3	10.0	-0.9	-4.4	·	i	-10.7
O=C(CSc1nnc(-c2ccc(Cl)s2)o1)N1CCc2ccccc21	·	·	·	-2.4	-8.0	·	i	-3.7
CN(C)c1cc[n+](CC(=O)c2ccc(-c3ccccc3)cc2)cc1	-17.4	-31.3	63.8*	13.1	-17.5	·	·	-2.7
O=C(O)c1ccccc1NN=Cc1ccccc1	0.5	-1.8	-75.6	·	·	-7.6	·	·
O=[N+]([O-])c1ccc2ncnc(N3CCN(Cc4ccc5c(c4)OCO5)CC3)c2c1	-12.2	-28.2	47.6	-12.8	-7.9	-1.5	i	10.6
COC(=O)c1ccc2nc(C3CCCCC3)c(Cc3cccc(Cl)c3)n2c1	-4.7	-6.1	3.7	·	·	21.8	·	·
COc1ccc(S(=O)(=O)N2CCCC(C(F)(F)F)C2)cc1 (centres undefined)	0.5	1.6	-2.5	-12.5	5.5	6.2	i	-5.7
O=C(c1cnccn1)N(Cc1cccs1)C1(C(=O)NC2CCCC2)CCCCC1	0.6	2.2	5.0	-5.2	0.7	0.1	i	0.7
CCOc1ccc(-n2c(SCC(=O)Nc3ccc4c(c3)OCCO4)nc3c(c2=O)SCC3)cc1	2.7	1.2	-213.3	-2.8	7.5	-2.0	·	2.4
COc1ccc(C(=O)Nc2ccc(N3CCOCC3)cc2)cc1S(=O)(=O)N1CCCC1	5.2	0.6	6.1	·	·	-17.1	·	·
CCCC(=O)OCC1CN(Cc2ccco2)S(=O)(=O)c2c(F)cccc2O1 (centres undefined)	-3.3	-0.5	3.0	·	·	-5.0	·	·

Limited to Env fusion inh, UUG fidelity and MT1-MMP act inh RFP (3 entries from above):
SMILES | Env fusion inh | UUG fidelity | MT1-MMP act inh RFP
O=C(c1cnccn1)N(Cc1cccs1)C1(C(=O)NC2CCCC2)CCCCC1 | 5.0 | 0.1 | 2.2
CCOc1ccc(-n2c(SCC(=O)Nc3ccc4c(c3)OCCO4)nc3c(c2=O)SCC3)cc1 | -213.3 | -2.0 | 1.2
COc1ccc(C(=O)Nc2ccc(N3CCOCC3)cc2)cc1S(=O)(=O)N1CCCC1 | 6.1 | -17.1 | 0.6

For reference, some entries already given.
SMILES	MT1-MMP act inh	MT1-MMP act inh RFP	Env fusion inh	CSC inhib	PABP FP inh	UUG fidelity	Rce1 inh	eIF4H inh
Cc1cc(NC(=O)CN2C(=O)/C(=C/c3ccc(C(C)C)cc3)SC2=S)no1	4.8	3.9	-6.5	·	·	-8.2	·	·
COc1cc2c(cc1NC(=O)CSc1ccccc1)oc1ccccc12	-0.6	1.6	1.5	17.3	-1.4	·	i	-3.0

The list goes on:
SMILES	MT1-MMP act inh	MT1-MMP act inh RFP	Env fusion inh	CSC inhib	PABP FP inh	UUG fidelity	Rce1 inh	eIF4H inh
O=C(NNS(=O)(=O)c1ccc(Cl)cc1)c1sccc1-n1cccc1	-0.4	-0.4	-14.2	0.6	-1.3	21.4	i	-16.1
CCc1cc(C(=O)OC)c(NC(=O)c2ccoc2C)s1	1.1	-2.2	17.1	8.8	-2.6	-14.9	i	-5.0
CCCC(=O)Nc1nnc(-c2ccccc2)o1	4.7	6.0	24.3	-3.6	5.3	0.7	i	0.7
O=c1[nH]c(CN2CCN(c3ccc(O)cc3)CC2)nc2scc(-c3ccc(Cl)cc3)c12	-5.1	-16.9	-49.0	104.8*	-4.0	·	i	5.0
NNC(=O)c1ccc(COc2ccc3ccccc3c2)cc1	-0.9	-3.2	-3.7	43.4	10.5	·	i	-0.6
CC(=O)N1CCSc2ccc(S(=O)(=O)NCCc3ccc(Cl)cc3)cc21	1.3	-16.2	13.6	-7.1	0.4	-12.4	i	-1.4
Cc1ccc(S(=O)(=O)NCc2ccc(C(=O)N3CCN(c4ccc([N+](=O)[O-])cc4)CC3)cc2)cc1	-8.6	-29.3	30.3	-1.6	8.2	-4.2	i	-10.3
COc1cccc(NC(=O)CSc2nc3c(oc4ccccc43)c(=O)[nH]2)c1	2.0	-1.6	-16.7	9.7	2.5	-1.2	i	-0.8
CC1CCN(c2ccc(C(=O)N3CCOCC3)cc2[N+](=O)[O-])CC1	-0.8	-5.4	·	·	0.2	-9.9	i	0.4
Cc1ccc2nc(-c3ccncc3)c(NC3CCCC3)n2c1	-8.9	-9.3	39.3	1.0	5.1	·	i	9.7
O=C1c2ccccc2NC(c2ccc(Cl)cc2Cl)N1O (centres undefined)	0.7	-1.1	·	·	6.3	-5.4	i	0.3
CC(=O)c1ccccc1NC(=O)COC(=O)/C=C/c1ccc(OC(F)F)cc1	2.0	2.3	-0.2	-14.5	·	-19.2	i	·
CC(C)C1N=C2c3ccccc3N=C(SCC#N)N2C1=O (centres undefined)	-0.3	2.7	-242.9	-5.2	-1.9	-26.4	i	-10.4
CCCCCCc1c(C)c2ccc(OCC(=O)N3CCC[C@H]3C(=O)O)c(C)c2oc1=O	8.3	6.1	·	-8.2	-3.1	-8.2	·	35.9
